Six1-Eya2 inh = inhibitors of human Six1/Eya2 interaction. Q15475+O00167. AlphaScreen GST-Six1/His-Eya2 binding, biochemical; stronger effect = lower value; control for the full effect not named in the record. activity change, % (no concentration beside the values). 360,000 tested, 0.56% active; in the data active = activity change below about -65%; inconclusive = about -30% to -65%; inactive = above about -30%; note: % is set by controls: 0 for no effect and ±100 for the full control effect; compound concentration not given in the record
Target sequence (O00167 whole entry, looked up): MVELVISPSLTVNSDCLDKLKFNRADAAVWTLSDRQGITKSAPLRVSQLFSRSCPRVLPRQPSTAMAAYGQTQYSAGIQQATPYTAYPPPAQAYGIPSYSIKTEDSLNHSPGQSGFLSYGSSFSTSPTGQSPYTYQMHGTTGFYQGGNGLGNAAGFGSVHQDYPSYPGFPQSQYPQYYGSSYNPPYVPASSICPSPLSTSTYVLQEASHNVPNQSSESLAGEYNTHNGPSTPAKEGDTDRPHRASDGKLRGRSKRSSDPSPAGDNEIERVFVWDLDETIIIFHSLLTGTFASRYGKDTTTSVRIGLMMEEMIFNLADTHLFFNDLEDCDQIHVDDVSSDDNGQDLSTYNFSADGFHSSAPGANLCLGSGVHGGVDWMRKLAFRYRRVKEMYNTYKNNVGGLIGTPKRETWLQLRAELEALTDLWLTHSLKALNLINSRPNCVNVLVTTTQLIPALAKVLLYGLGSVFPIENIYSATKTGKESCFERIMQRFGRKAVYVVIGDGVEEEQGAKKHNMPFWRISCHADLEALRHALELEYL
Target sequence (Q15475 whole entry, looked up): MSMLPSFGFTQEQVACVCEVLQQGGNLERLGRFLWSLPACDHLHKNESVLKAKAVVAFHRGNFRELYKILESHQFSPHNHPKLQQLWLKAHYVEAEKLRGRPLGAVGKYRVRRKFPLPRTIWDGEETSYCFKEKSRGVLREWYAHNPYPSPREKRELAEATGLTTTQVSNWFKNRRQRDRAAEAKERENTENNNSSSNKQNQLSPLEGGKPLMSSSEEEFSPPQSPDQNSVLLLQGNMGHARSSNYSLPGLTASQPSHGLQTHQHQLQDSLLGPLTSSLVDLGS
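Homogeneous AlphaScreen proximity assay pairing GST-Six1 with His-tagged Eya2 (added as 5X mix: 250 nM and 500 nM) in 50 mM Tris pH 8.0, 300 mM NaCl, 1 mM TCEP. Glutathione donor and nickel acceptor beads; 1 h, 37 °C, dark.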
PINK1 modulator = PINK1 expression modulation. PINK1 immunofluorescence, high-content cytometry, 24 h. Potency, µM (top dose mostly 76.6 µM), without a hit: top-dose activation (PINK1 increase), usual class: activators. 410,000 tested, 0.2% active. AID 624263; active = well fitted activation curve with a large enough effect; inconclusive = small, poorly fitted or top-dose-only effect; inactive = flat fitted curve, though single readings scatter; cell line not stated here;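 note: potency is the fitted concentration of half-maximal effect; % of control where 0% means no effect; nearly all actives have a fitted effect of over 65% in size; a mitochondrial uncoupler was the plate control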
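Decision-based qHTS: stable cells, 24 h exposure to five compound concentrations, CCCP as control. Fixed cells stained for PINK1 plus nuclear, mitochondrial and cell markers, cytometer read.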
D2 ag = human D2 receptor agonism in beta-arrestin assay; P14416; DiscoveRx PathHunter D2 beta-arrestin, luminescence, 90 min; 100% = 57 uM dopamine signal; activation, % (test concentration not listed); 360,000 tested, 0.084% active; AID 624465; in the data active = activation above about 40%; inconclusive = about 15% to 40%; inactive = below about 15%; note: compound concentration not given in the record; the text of the record calls up to 30% inactive
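Agonist mode: compounds alone added to overnight-plated D2 PathHunter cells for 90 min at 37 C, with 57 uM final dopamine (EC100) defining full response. Beta-arrestin recruitment detected by chemiluminescent reagent, read after 1 h at ambient temperature.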
D2 potentiator = positive allosteric modulators of human D2 dopamine receptor; P14416; DiscoveRx D2 beta-arrestin cells, luminescence, 90 min; 100% = 57 uM dopamine signal; potentiation, % (no concentration beside the values); 360,000 tested, 0.23% active; AID 624464; active = potentiation of 50% or more; inconclusive = 30% to 50%; inactive = 30% or less;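 note: compound concentration not given in the record; tested on top of an EC20 dose of dopamine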
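D2 cells co-treated with compound plus 50 nM dopamine (EC20) for 90 min at 37 deg C to detect potentiation. Beta-arrestin recruitment was read as enzyme-fragment luminescence after 1 h at ambient temperature. Full response was set by 57 uM dopamine.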
TRPML1 ag = agonists of human TRPML1 channel. Q9GZU1. TRPML1-expressing cells, Ca2+ dye fluorescence, FDSS; host cell line not named in the record; reference of the full effect not given here. activation, % (no concentration beside the values). 410,000 tested, 0.12% active. AID 624414; in the data active = activation above about 50%; inconclusive = about 30% to 50%; inactive = below about 30%; note: 0% is about no effect; the text of the record puts the active cut at 80%
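In this qHTS format, compounds were pin-transferred onto Ca8-dye-loaded TRPML1-DL cells induced with Tet overnight, and intracellular Ca2+ fluorescence was recorded kinetically for 110 s after a 10 s baseline. A subsequent 4uM final 54-4 (EC80) addition followed by a second 110 s read served as the antagonist phase.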
TRPML1 blocker = human mucolipin-1 channel inhibition; Q9GZU1; TRPML1-inducible cells, Ca2+ dye fluorescence, FDSS; stronger effect = lower value; inhibition of EC80 agonist-evoked calcium signal; activity change, negative = inhibition, % (concentration not given with the values); 390,000 tested, 0.02% active; in the data active means activity change below about -50%; inconclusive means about -30% to -50%; inactive means above about -30%;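 note: stimulus is agonist 54-4 at its EC80 concentration; % is set by controls: 0 for no effect and ±100 for the full control effect; compound concentration not given in the record; the text of the record puts the active cut at -80%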
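Calcium fluorescence in TRPML1-DL cells induced overnight with Tet: a 110 s read after compound pin addition, then a 110 s antagonist read after challenge with 54-4 at 4 uM final (EC80).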
Active calls of the source: *; x = no result given; [ ] = dose if it differs, or a comment.

SMILES | Six1-Eya2 inh | PINK1 modulator | D2 ag | D2 potentiator | TRPML1 ag | TRPML1 blocker
CCC(Sc1nc(N)cc(N)n1)C(=O)O (stereo not given) | 1 | -1.2% | -4.0 | -9 | 0.0 | -2
CC(C)(C)C(=O)Cn1c(=O)n(CCCCCC(=O)NCc2ccccc2Cl)c(=O)c2sccc21 | x | 2.5% | x | x | 1.2 | 66
Cc1c(NC(=S)NC(=O)COc2ccccc2)c(=O)n(-c2ccccc2)n1C | 5 | 0.2% | -0.7 | -12 | 1.1 | 44
Fc1cccc(-c2ncc(-c3ccccc3)o2)c1 | 14 | 3.1% | -2.5 | -9 | -0.5 | 0
Cc1cc(C(=O)OCC(=O)NCCc2ccc(S(N)(=O)=O)cc2)c2ccccc2n1 | -9 | 0.7% | -1.6 | -4 | -0.7 | 10
Cn1c(N)c(C(=O)COC(=O)C2CCN(S(=O)(=O)c3cccs3)CC2)c(=O)n(C)c1=O | 13 | 1.0% | 0.8 | 1 | 0.8 | 3
COC(=O)c1ccc(CSc2nc3ccccc3c(=O)n2-c2ccc(OC)c(OC)c2)o1 | -7 | x | -3.6 | -5 | 3.3 | 29
O=C(CN1CCN(C/C=C/c2ccccc2)CC1)Nc1ccccc1C(=O)NC1CC1 | 0 | 0.5% | -7.1 | -25 | -0.4 | 7
CCOc1ccc(N(CC(=O)Nc2cccc(C)c2)S(C)(=O)=O)cc1 | 23 | -1.8% | 0.8 | -5 | 1.3 | -12
CC(=O)NCCNC(=O)C1CCCCN1S(=O)(=O)c1ccccc1 (stereo not given) | 0 | -1.9% | -3.6 | -20 | 0.1 | 1
O=C(COc1ccc(Cl)cc1Cl)Nc1c(-c2cccs2)nc2ccccn12 | 3 | 7.1% | -2.2 | -3 | 0.1 | 3
NCC1CC2c3ccccc3C1c1ccccc12 (stereo not given) | 1 | 0.6% | -1.1 | -5 | 0.4 | 4
CN(C)c1ccc(C(=O)OCc2cc(=O)n3ccsc3n2)cc1 | 1 | 9.3% | 0.4 | -10 | -0.1 | 0
COC(=O)/C(=C/c1ccc(F)cc1)NC(C)=O | 19 | 2.7% | -1.9 | 7 | 0.3 | -3
COCc1nnc(NC(=O)c2cc3ccccc3o2)s1 | -1 | 0.8% | 1.1 | 11 | -0.2 | -6

Reprinted at random: three compounds from above.
SMILES | Six1-Eya2 inh | PINK1 modulator | D2 ag | D2 potentiator | TRPML1 ag | TRPML1 blocker
Fc1cccc(-c2ncc(-c3ccccc3)o2)c1 | 14 | 3.1% | -2.5 | -9 | -0.5 | 0
CN(C)c1ccc(C(=O)OCc2cc(=O)n3ccsc3n2)cc1 | 1 | 9.3% | 0.4 | -10 | -0.1 | 0
CC(=O)NCCNC(=O)C1CCCCN1S(=O)(=O)c1ccccc1 (stereo not given) | 0 | -1.9% | -3.6 | -20 | 0.1 | 1

Continuation.
SMILES | Six1-Eya2 inh | PINK1 modulator | D2 ag | D2 potentiator | TRPML1 ag | TRPML1 blocker
C=CCN(C(=O)c1csnn1)C(C(=O)NCc1ccccc1)c1cccs1 (stereo not given) | 1 | -1.1% | -1.3 | 2 | -0.7 | -4
CNC(=O)COc1ccc(S(=O)(=O)N2CCCC2)cc1 | -7 | 0.5% | -1.1 | -6 | 3.0 | -11
CC(=O)Nc1ccc(NC(=O)CCNC(=O)c2ccccc2Cl)cc1 | -2 | 0.2% | 5.2 | -8 | 0.4 | -3
O=c1oc2ccccc2nc1/C=C(O)/C=C/c1ccc(F)cc1 | -12 | 5.5% | -4.3 | -22 | -0.2 | -10
COc1ccc(Cl)cc1NC(=O)c1cc(-c2ccco2)on1 | 4 | 3.3% | -4.2 | -3 | -0.5 | 9
CCCOC(=O)Cn1c(=O)c2cc3c(=O)n(CC(=O)OCCC)c(=O)c3cc2c1=O | -9 | 3.3% | 13 | 8 | -0.9 | -4
C[C@@H]1CN([C@@H](C)CO)S(=O)(=O)c2ccc(Br)cc2O[C@H]1CN(C)C(=O)Nc1ccc2c(c1)OCO2 | 8 | 2.9% | -9.8 | -10 | -0.2 | -5
COc1ccccc1N(CC(=O)N(CC(C)C)CC(C)C)S(=O)(=O)c1cccs1 | 5 | 1.4% | -4.1 | -2 | 2.8 | 37
Nc1nc(SCc2ccccc2)c2ncn(CCO)c2n1 | 0 | 3.0% | 0.9 | -27 | 0.4 | -5
Cn1c(=O)oc2cc(S(=O)(=O)NC3CCCCC3)ccc21 | -4 | -1.7% | 1.2 | -2 | 0.0 | 8
Cc1ccc(S(=O)(=O)NN2C(=O)c3ccccc3NC2c2ccccc2F)cc1 (stereo not given) | 3 | -0.1% | -2.6 | -12 | 0.5 | 8
CCOCCCNC(=O)c1c[nH]c2c(CC)cccc2c1=O | 0 | 2.6% | -3.0 | -10 | -0.2 | -20
Cc1nnc(SCC(=O)c2ccc(S(=O)(=O)N3CCOCC3)cc2)n1-c1ccccc1 | 0 | -2.2% | -2.2 | -1 | -1.3 | 3
Cc1ccc(CNC(=O)c2ccc3c(c2)nc(C)n3-c2cc(C)cc(C)c2)cc1 | x | 16% | x | x | 3.6 | 34
CCc1ccc(NC(=O)c2cccc(N3CCCS3(=O)=O)c2)cc1 | x | 0.0% | x | x | 1.1 | -14
Nc1cccc(NP(=O)(c2ccccc2)c2ccccc2)c1 | -2 | 1.2% | -4.1 | -17 | -0.4 | -6
C[C@H](CO)N1C[C@H](C)[C@@H](CN(C)C(=O)CN2CCOCC2)Oc2cc(Br)ccc2S1(=O)=O | -1 | 1.1% | -0.4 | x | x | x
CCCCN(C)C(=O)C1CCC(CNS(=O)(=O)c2ccc(Cl)cc2)CC1 (stereo not given) | x | 1.3% | x | x | 0.7 | 0
CC(=O)Nc1cccc(C(=O)OCC(=O)N2CCC(c3ccccc3)=N2)c1 | -4 | 5.4% | -4.9 | -3 | 0.3 | 6
Cc1ccc(C)c(NC(c2ccccc2)c2nnc(-c3ccccc3F)o2)c1 (stereo not given) | x | 1.8% | x | x | 1.5 | 37
CCOc1ccc(OCC)c(NC(=O)C2CCN(S(=O)(=O)c3ccc(Br)s3)CC2)c1 | x | -0.5% | x | x | 4.2 | -6
O=C(Nc1sc2c(c1C(=O)O)CCCCC2)c1ccccc1 | -13 | -1.3% | -3.9 | -2 | -0.3 | 17
Cc1ccc(Cn2cc(C(=O)NN)c(=O)c3ccc(F)cc32)cc1 | 5 | 11% | -14 | -1 | 0.2 | 15
OCCNc1nc(C2CC2)nc2c1nnn2Cc1ccccc1Cl | 0 | -0.5%[38.3 µM] | 2.8 | -7 | 3.9 | -7
CN(C)S(=O)(=O)c1ccc(N2CCCC2)c(C(=O)Nc2ccccc2)c1 | -4 | 7.4% | -6.1 | -36 | -0.2 | -3
Cc1ccc(CNc2ccc3c(c2)ncn3C)cc1 | -3 | x | 0.1 | 2 | 0.1 | -2
Cc1ccc(/C=C/C(=O)NCc2ccncc2)cc1 | 4 | -1.9% | -2.0 | -9 | 0.1 | -6
COc1ccccc1C(=O)COC(=O)c1cccc(S(=O)(=O)N2CCCC2)c1 | -10 | 0.5% | -1.5 | -12 | 3.4 | 58
COc1ccc(Cn2c(=O)[nH]c3cc(C(=O)NCCCN4CCCC4=O)ccc3c2=O)cc1 | -4 | -1.1% | -2.4 | -11 | -0.8 | 6
CCCCCCC1CC(=O)NC(=O)N1 (stereo not given) | 0 | 2.2% | -2.6 | -2 | -0.6 | 11
Cc1ccc(Cn2cc(CCC(=O)O)c3ccccc32)cc1 | 3 | 1.2% | -5.6 | 7 | x | x
COC(=O)c1ccccc1NC(=O)c1cccc(NC(=O)c2ccc(Br)o2)c1C | -9 | 5.3%[38.3 µM] | -1.6 | -18 | -0.1 | -6
CCOC(=O)Cc1csc(N/N=C/c2cccc([N+](=O)[O-])c2)n1 | -2 | 0.4% | -2.0 | 0 | 0.2 | -9
CC1=NN(c2ccc(C(=O)O)c(N)c2)C(=O)C1 | -4 | 3.2% | -6.3 | -2 | 2.0 | 2
O=C(O)C1CCCN(S(=O)(=O)Cc2ccccc2)C1 (stereo not given) | 0 | -1.0% | -3.7 | 1 | 0.3 | 6
COc1ccc(Oc2c(C(F)(F)F)oc3c(CN4CCCC(C)C4)c(O)ccc3c2=O)cc1 (stereo not given) | x | 1.5% | x | x | 3.9 | -7
CCOc1ccc(N(CC(=O)NCC2CCCO2)C(=O)CCC(=O)Nc2ccccn2)cc1 (stereo not given) | 1 | -1.2% | -3.9 | -8 | -1.2 | 8
COc1cc2ccccc2cc1C(=O)N1CCN(c2nc3c(C)cc(C)cc3s2)CC1 | x | 1.0% | x | x | 0.7 | 10
CCCc1nnc(NC(=O)CCC(=O)NC2CCCCCC2)s1 | 1 | 4.0% | -3.1 | -17 | -0.1 | 3
C=CCSc1nc(N)c(C(=O)Nc2ccccc2C)cc1C(N)=O | -10 | 1.0% | -0.4 | -5 | -0.1 | -4
COc1ccc([N+](=O)[O-])cc1NC(=O)CN(C)S(=O)(=O)c1ccccc1 | -2 | 4.1% | -1.9 | -7 | 1.6 | -6
CC(=O)Nc1ccc(C(=O)n2cnc3cc(C)c(C)cc32)cc1 | 0 | -1.8% | -2.3 | -24 | 0.4 | 11
CC1(C(=O)NS(=O)(=O)Cc2cccc(Cl)c2)CCN1C(=O)C/C=C/c1ccccc1 (stereo not given) | 0 | 0.7% | 6.1 | -1 | -0.3 | x
COc1ccc(NC(=O)Nc2cccc3c2O[C@H](CN(C)C(=O)Nc2ccc(OC)cc2)[C@@H](C)CN([C@H](C)CO)C3=O)cc1 | 4 | 0.7% | 6.7 | 3 | -0.3 | -16
Cc1c(Cl)ccc2c(C(=O)O)cc(-c3ccccc3)nc12 | -1 | 0.2% | -4.9 | -5 | x | x
Cc1ccc(S(=O)(=O)NC[C@H]2O[C@@H](n3cnc4c(N)ncnc43)[C@H](O)[C@@H]2O)s1 | 5 | -0.8% | -0.5 | x | -0.6 | 25
CCc1c(C)[nH]c2ccccc2c1=O | 3 | 1.3% | -2.3 | -11 | 1.5 | 14
Cn1cnnc1SCC(=O)Nc1ncc([N+](=O)[O-])s1 | -25 | 1.6% | -5.1 | -19 | 0.3 | 1
CCOC(=O)C(NC(=O)c1cccc(Cl)c1)(OCc1ccc(F)cc1)C(F)(F)F (stereo not given) | 32 | 2.8% | -3.9 | -5 | 1.6 | 8
CCN(c1ccccc1)c1nnc(NC(=O)Nc2cccc(Br)c2)s1 | x | 2.1% | x | x | -0.6 | 19
O=C(NCC(c1ccco1)N1CCCC1)c1ccc(-n2cccn2)cc1 (stereo not given) | -17 | -1.0% | -1.3 | -11 | 2.8 | 5
Cc1cccc(C)c1NC(=O)CS(=O)CC(=O)Nc1ccc(N2CCOCC2)cc1 (stereo not given) | 2 | 4.8% | -0.7 | -4 | 0.1 | 7
COc1cc(OC)cc(-c2cc(NC(C)=O)n[nH]2)c1 | -6 | 2.3% | 2.9 | -2 | 1.2 | 9
